RecA intein inh = Mtb RecA intein splicing inhibitors, primary screen, biochemical, fluorescence, HTS. AID 2221, 2009. cell-free RecA intein splicing. Protein RecA (Mycobacterium tuberculosis (strain ATCC 25618 / H37Rv)), P9WHJ3. inhibition, %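 (about 9 µM by stock and volumes)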. 0.75% of 290,000 active; in the data active = inhibition above about 30%; inconclusive = no clear call, values can overlap the other calls;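 also: 0% = vehicle wells and 100% = reference inhibitor control wells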
Target sequence (P9WHJ3 whole entry, looked up): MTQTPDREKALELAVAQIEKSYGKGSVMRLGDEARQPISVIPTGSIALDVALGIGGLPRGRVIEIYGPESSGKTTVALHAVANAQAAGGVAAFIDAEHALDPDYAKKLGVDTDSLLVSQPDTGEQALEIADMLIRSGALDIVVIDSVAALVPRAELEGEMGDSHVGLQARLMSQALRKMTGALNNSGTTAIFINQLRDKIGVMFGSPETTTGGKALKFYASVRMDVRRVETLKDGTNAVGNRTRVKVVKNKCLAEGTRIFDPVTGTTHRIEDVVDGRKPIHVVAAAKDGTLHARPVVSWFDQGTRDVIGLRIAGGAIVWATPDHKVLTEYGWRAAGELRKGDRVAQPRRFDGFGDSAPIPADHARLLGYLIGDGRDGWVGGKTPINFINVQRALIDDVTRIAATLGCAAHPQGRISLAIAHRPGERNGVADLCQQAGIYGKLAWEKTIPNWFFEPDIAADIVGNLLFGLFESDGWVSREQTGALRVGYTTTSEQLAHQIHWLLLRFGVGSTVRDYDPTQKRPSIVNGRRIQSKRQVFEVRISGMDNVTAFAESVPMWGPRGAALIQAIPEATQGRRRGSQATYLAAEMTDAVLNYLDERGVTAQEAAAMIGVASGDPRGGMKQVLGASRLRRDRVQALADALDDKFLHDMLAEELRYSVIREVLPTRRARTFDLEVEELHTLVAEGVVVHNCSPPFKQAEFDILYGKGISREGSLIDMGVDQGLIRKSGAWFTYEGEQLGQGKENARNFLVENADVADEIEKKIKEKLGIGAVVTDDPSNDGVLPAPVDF
Arbovirus anti = antivirals against arbovirus infection, primary screen, cell-based, full library, 10K replicate subset; inhibition, % at 10 µM; arbovirus infection cell-based antiviral screen; AID 1251, 2008; 0.37% of 200,000 active;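 active = inhibition from about 30%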;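 also: bluetongue infection of BSR cells; cell survival read as ATP light after 72 h; 0% = infected wells without compound and 100% = uninfected wells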
Mtb bLac sens = beta-lactam sensitization of Mtb H37Rv, H37Rv; inhibition, % at 25 µM; M. tuberculosis H37Rv growth with meropenem, percent inhibition; hits of this screen are not shown here; 0.27% of 330,000 active;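 active = about 74% or more and at least 40 points above the plate without the antibiotic, then above 30% in a dose series; inconclusive = first-round hits that could not be retested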;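 also: growth measured after seven days incubation then overnight dye step; 0% = bacteria only wells and 100% = bacteria with antibiotic; twin plates without the antibiotic show which effects depend on it; some results filed as inactive read as strong as hits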
Mtb growth = M. tuberculosis H37Rv growth inhibitors, H37Rv strain (AID 1626). M. tuberculosis H37Rv growth inhibition; higher % means a stronger effect. inhibition, % at 10 µM; hits with a dose series show IC50 in µM. 0.95% of 220,000 active;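 active = confirmed in a dose series; inconclusive = inhibition above 80% but not taken into the dose series; inactive = below 80% or under 30% at every dose of the series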;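 also: bacteria incubated seven days before Alamar blue readout; 0% = bacteria only wells and 100% = bacteria with antibiotic wells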
YopH inh = YopH tyrosine phosphatase inhibitors, primary screen, biochemical, fluorescence Ex485/Em525. inhibition, %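 (about 10 µM by stock and volumes)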. YopH tyrosine phosphatase [Yersinia enterocolitica]. AID 898, 2007. 0.16% of 140,000 active;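 active = inhibition of 50% or more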;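 also: controls were vehicle for no effect and minimum signal wells for full effect; inactives centre near -20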
Arbovirus anti repeat = second read-out of Arbovirus anti, no call of its own (marks repeat the call); inhibition, %; measured here: 10K subset replicate screen; many hits read low in the repeat;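 first of two repeat runs on a subset; 0% = infected and 100% = uninfected wells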
* hit, by the source's call; ? = inconclusive; / = not tested or not shown.

SMILES | RecA intein inh | Arbovirus anti | Mtb bLac sens | Mtb growth | YopH inh | others
Cn1c(-c2ccccc2)c(C=O)c2ccccc21 | -1.1 | -1.8 | 0.9 | -7.2% | /
COc1cc(C(=O)N[C@H](C(=O)NC(C)C23CC4CC(CC(C4)C2)C3)C(C)C)cc(OC)c1OC (some centres undefined) | -1.6 | 5.1 | -1.9 | 0.3% | -13.2
CN1CCC(N(C)c2nc(-c3ccc([N+](=O)[O-])cc3)nc3ccccc23)CC1 | 3.3 | -42.1 | / | / | -19.9
C=CCn1c(=N)n(CC(=O)OCC)c2ccccc21 | 4.8 | -1.5 | -8.3 | / | 0.1
CCCCc1cc(=O)oc2cc(O)cc(O)c12 | -20.0 | -9.0 | -1.9 | -1.1% | /
O=C(COC(=O)CCNS(=O)(=O)c1ccccc1)NC(=O)c1ccccc1 | -2.6 | / | -2.8 | / | /
COc1ccc(CCN2C(=O)CC(NCc3ccc4c(c3)OCO4)C2=O)cc1OC (centres undefined) | -2.9 | 6.0 | 0.7 | 4.1% | -47.6
COc1cccc(CNC(=O)CCSCc2ccccc2F)c1 | 1.1 | 1.6 | 4.2 | 1.1% | /
COc1cccc(CNc2ccc(F)c(Cl)c2)c1 | 11.4 | -3.7 | 1.8 | 12.1% | -2.4
CCOc1ccc(S(=O)(=O)NCCC(=O)NCC(C)(C)N2CCOCC2)cc1 | -0.4 | / | 3.5 | / | /
C=C(C)COc1ccc2c3c(c(=O)oc2c1OCC(=C)C)CCC3 | -18.5 | -4.7 | 8.0 | -0.5% | -40.4
COc1cc([N+](=O)[O-])ccc1NC(=S)N1CCOCC1 | -0.5 | / | -8.4 | / | /
CCOC(=O)c1ccc(CSc2nncn2N)o1 | 6.8 | 3.4 | -2.5 | -7.1% | 3.5
O=C(/C=C/c1ccco1)NC(=S)Nc1cccc([N+](=O)[O-])c1 | 0.4 | -7.6 | -0.6 | 1.7% | 4.2
COc1cc2c(cc1O)[C@@H]1Cc3cc(OC)c(OC)cc3C(C2)N1C | -4.0 | / | -4.2 | -14.1% | /

Pulled one by one from the entries so far:
SMILES | RecA intein inh | Arbovirus anti | Mtb bLac sens | Mtb growth | YopH inh | others
C=CCn1c(=N)n(CC(=O)OCC)c2ccccc21 | 4.8 | -1.5 | -8.3 | / | 0.1
CCOc1ccc(S(=O)(=O)NCCC(=O)NCC(C)(C)N2CCOCC2)cc1 | -0.4 | / | 3.5 | / | /
COc1cccc(CNc2ccc(F)c(Cl)c2)c1 | 11.4 | -3.7 | 1.8 | 12.1% | -2.4
COc1cc2c(cc1O)[C@@H]1Cc3cc(OC)c(OC)cc3C(C2)N1C | -4.0 | / | -4.2 | -14.1% | /
O=C(COC(=O)CCNS(=O)(=O)c1ccccc1)NC(=O)c1ccccc1 | -2.6 | / | -2.8 | / | /

The listing continues.
SMILES | RecA intein inh | Arbovirus anti | Mtb bLac sens | Mtb growth | YopH inh | others
CN1CCN(c2ccc(NC(=O)c3ccccc3Br)cc2)CC1 | 0.2 | -12.8 | -12.6 | 0.7% | -4.5
CCOC(=O)Cc1cc(=O)n2[nH]c(C)c(-c3ccc(Cl)cc3)c2n1 | 0.2 | -14.1 | 91.8 | 38.3% | -41.7
Cc1noc(C)c1COC(=O)CCc1nc2ccccc2s1 | -1.2 | -1.9 | 51.2 | 0.0% | -53.0
COc1ccc(C(=O)Nc2c(N)nc(SCC(=O)N3CCCCCC3)[nH]c2=O)cc1OC | -1.5 | 1.7 | 0.5 | -3.2% | -26.4 | Arbovirus anti repeat=0.0
COC(=O)c1cc(NC(=O)CC2SC(=Nc3ccccc3)N(CCc3c[nH]c4ccccc34)C2=O)cc(C(=O)OC)c1 (centres undefined) | 1.5 | -15.4 | 4.6 | 66.3% | -41.5
Cc1nc2sc(C(c3ccco3)N3CCN(c4cccc(Cl)c4)CC3)c(O)n2n1 (centres undefined) | 4.7 | 11.9 | 0.1 | -5.1% | 28.8
CCc1ccc(Oc2nc([N+](=O)[O-])nn2C)cc1 | -2.2 | -0.9 | 99.6 | ? | /
CCCCNC(=O)CSc1nc2ccccc2n1S(=O)(=O)c1ccc(Cl)cc1 | 1.7 | 4.4 | 3.0 | 8.3% | -30.9
O=C(NCCc1cccc(C(F)(F)F)c1)C1CCC(=O)N(Cc2ccc(Cl)cc2)C1 (centres undefined) | -2.0 | / | -15.5 | / | /
Cc1cc2oc(C(=O)N3CCN(Cc4ccccc4)CC3)c(C)c2cc1C | 9.7 | / | -3.9 | / | /
N/C(=N\N=C/c1ccc(Br)cc1)N/N=C\c1ccc(Br)cc1 | 18.8 | 5.8 | 95.0 | ? | /
Cc1ccc(-n2c(SCC(=O)N3CCOCC3)nc(O)cc2=O)cc1 | -2.4 | / | 4.2 | / | /
CCCn1c2ccccc2c2cnn(CC(=O)NC3CCC(C)CC3)c(=O)c21 (centres undefined) | 0.2 | / | 18.8 | / | /
CCc1nnc(NS(=O)(=O)c2ccc(NCc3cc(Br)ccc3O)cc2)s1 | 7.0 | / | -7.6 | / | /
CCOC(=O)c1oc2ccc(Cl)cc2c1NC(C)=O | 4.0 | 3.0 | 2.4 | -2.1% | /
CC(=O)Cn1c(CN2CCCCC2)nc2ccccc2c1=O | -1.4 | 10.7 | -6.8 | 4.4% | /
S=C(NCCc1ccccc1)NCc1cccc(Cl)c1 | 7.4 | / | -9.9 | / | /
O=Cc1cn(-c2ccccc2)nc1-c1ccccc1 | 1.6 | / | -10.0 | / | /
O=C(NCC1(N2CCCCC2)CCCCC1)c1ccc(NS(=O)(=O)c2ccccc2)cc1 | -1.3 | / | -3.8 | / | /
Cc1ccc(NC(=O)CSc2nc(N)c(-c3ccccc3)c(=O)[nH]2)cc1Cl | 0.8 | -4.4 | 1.4 | -2.8% | /
Cc1c(NC(=O)c2ccccc2NC(=O)c2ccccc2)cccc1C(=O)O | 0.2 | / | 6.0 | / | /
CN(C)C(=O)C(OC(=O)c1ccc2ccccc2n1)c1ccccc1 (centres undefined) | -2.0 | / | 9.6 | / | /
Cc1ccn2c(=O)nc(SCC(=O)Nc3ccc4c(c3)OCO4)nc2c1 | -4.5 | / | 6.4 | / | /
COc1cccc(OCCCN2CCN(S(=O)(=O)c3ccc(NC(C)=O)cc3)CC2)c1 | / | 6.4 | -14.3 | -3.8% | 0.8
O=C(c1ccco1)N1CCN(Cc2ccc(Cl)cc2)CC1 | 1.1 | -0.1 | 1.9 | -7.9% | -29.9
CCOC(=O)Nc1nn(-c2ccc(C)cc2)c(=O)c(C#N)c1C | 6.2 | -2.0 | -2.6 | 0.7% | /
O=C(Cc1cccc(C(F)(F)F)c1)NCc1ccc(Cl)cc1 | 2.5 | -3.4 | 5.5 | 15.5% | -20.4
O=S(=O)(Cc1nnnn1-c1ccc(Br)cc1)c1ccc(F)cc1 | -0.3 | / | 0.2 | / | /
COC1=C(N2CCOCC2)C(=O)c2ccccc2C1=O | -1.1 | / | 0.5 | / | /
O=C(CCc1ccccc1)NC(=S)Nc1ccc2c(c1)C(=O)OC2 | -1.6 | 0.8 | 3.3 | 0.9% | /
O=S(=O)(Nc1ccc(N2CCCCC2)cc1)c1ccccc1F | 0.4 | / | 9.8 | 21.5% | /
O=C(N1CCCCC1)N1CCN(C(=O)N(c2ccccc2)c2ccccc2)CC1 | 2.4 | 2.8 | -1.1 | 3.9% | -9.3
CN1C(=O)Cc2cc(S(=O)(=O)N3CCN(c4cccc(C(F)(F)F)c4)CC3)ccc21 | -0.2 | / | 5.7 | / | /
CCCc1cc(=O)oc2c(C)c3occ(C)c3cc12 | 0.4 | 8.6 | 63.7 | 7.8% | -22.9 | Arbovirus anti repeat=1.5
COc1ccc2oc(C(=O)Nc3nc4ccc(S(C)(=O)=O)cc4s3)c(C)c2c1 | 2.8 | / | -7.7 | / | /
CCO[C@H]1OC(C(=O)NCc2ccccc2)=C[C@@H](c2ccc(C(F)(F)F)cc2)[C@@H]1CCCO | 2.5 | -20.1 | 1.2 | 6.4% | /
Cc1n[nH]c(C)c1S(=O)(=O)N1CCCC(C(=O)NCC2COc3ccccc3O2)C1 (centres undefined) | 2.1 | 5.0 | -6.6 | 12.3% | -9.0
c1ccc(-n2nnc(-c3nccs3)n2)cc1 | -1.4 | / | -1.4 | -6.8% | /
Cc1ccc(/C=C2/Sc3ccccc3N(CC(=O)NCCCOC(C)C)C2=O)cc1 | -29.6 | 10.0 | 9.2 | 0.1% | -11.1
O=S(=O)(Oc1ccc(Cl)cc1)c1cccc2cccnc12 | 1.9 | / | 0.2 | -7.1% | /
COc1ccc(OC)c(CCNC(=O)Cn2cccc2C(=O)c2ccccc2C)c1 | 4.1 | 0.7 | -7.2 | -3.8% | /
CSCCC(NC(=O)c1ccc([N+](=O)[O-])cc1Cl)C(=O)OCC(=O)C12CC3CC(CC(C3)C1)C2 (centres undefined) | 0.7 | -1.0 | -3.8 | 1.6% | -20.4
O=C(COc1ccc(Br)cc1)OCc1nnc(-c2ccccc2)o1 | 5.9 | 0.2 | 5.4 | 1.8% | -20.3
Cc1cc(NC(=O)CSc2nnc(COc3ccccc3)o2)no1 | -2.3 | 2.2 | -4.1 | 3.0% | 36.3
CCCc1c(C(=O)N/N=C/c2cccs2)nnn1-c1nonc1N | 0.1 | / | 2.1 | / | /
CCOc1ccc(NC(=O)COc2ccc(S(=O)(=O)N3CCCC3)cc2)cc1 | -3.2 | / | -11.3 | / | /
COc1ccc(-n2c(SCC(=O)N3CCOCC3)nc3ccccc3c2=O)cc1 | 2.4 | / | ? | / | /
CCC(CC)NCC(O)COc1ccc(Br)cc1 (centres undefined) | -1.7 | -5.3 | -8.9 | 10.9% | /
Cc1cc(C)c(S(=O)(=O)NCC2CCC(C(=O)NCCCN3CCOCC3)CC2)c(C)c1 (centres undefined) | -1.1 | -1.9 | / | -8.7% | -31.4 | Arbovirus anti repeat=-0.9
Clc1ccc(-c2nnc(-c3ccc(Br)o3)o2)c(Cl)c1 | -0.8 | 3.0 | 22.6 | 1.9% | -37.1
Cc1ccc(-c2nc(CSCC(=O)N3CCCC3)c(C)o2)cc1 | -2.0 | 3.0 | -0.8 | -0.9% | 1.3
O=C(Cc1ccccc1)Nc1c(C(=O)N2CCOCC2)cnn1-c1ccccc1 | / | 5.3 | 2.1 | -2.6% | -18.9 | Arbovirus anti repeat=-1.5
Clc1ccc(CO/N=C2\CCCc3nonc32)c(Cl)c1 | 3.9 | 0.8 | -7.2 | 7.3% | -9.3
Cc1cc(NC(=O)CSc2nnc(C)c(=O)n2N)no1 | -2.2 | 1.1 | 0.0 | 3.4% | /
CCC(=O)NC1CC2CCCC(C1)N2Cc1ccc(C)cc1 (centres undefined) | 1.9 | / | -2.4 | / | /
O=C(Nc1nnc(Cc2ccccc2)s1)C1CCC1 | 3.2 | / | 2.8 | / | /
CC(=O)c1cc(F)ccc1OCC(=O)N1CCN(c2ccc(F)cc2)CC1 | 4.9 | 12.4 | -2.5 | 3.8% | /
CNC(=O)CCn1nc(-c2ccc(Cl)cc2)c2ccccc2c1=O | -2.1 | -10.1 | 66.8 | 1.5% | -14.0
O=C(O)c1ccc(-n2ncc3c2/C(=C/c2cccc([N+](=O)[O-])c2)CC3)cc1 | 2.7 | / | 40.6 | -5.9% | /
Cc1c(NC(=O)N(C)c2ccccc2)c(=O)n(-c2ccccc2)n1C | 1.0 | / | -8.7 | / | /

Going on with the list.
SMILES | RecA intein inh | Arbovirus anti | Mtb bLac sens | Mtb growth | YopH inh | others
Cc1ccc(N2CCN(S(=O)(=O)c3c(C)nc4scc(C)n4c3=O)CC2)c(C)c1 | 6.4 | / | 0.0 | / | /
Cc1ccc(-c2cc(N)n(Cc3ccc(Cl)cc3)n2)cc1 | 6.1 | -11.4 | -1.0 | 0.6% | -37.1
CCCCn1c(CNC(C)=O)nc2ccccc21 | 1.9 | 2.1 | -5.6 | 1.6% | -23.0 | Arbovirus anti repeat=7.5
Cc1cc(S(=O)(=O)N2CCCC2)c(C)s1 | -2.0 | -1.4 | ? | -1.6% | -21.7
Cc1nc2cc(NC(=O)N3CC4(C)CC3CC(C)(C)C4)ccc2n1C (centres undefined) | 1.0 | 0.5 | 1.4 | -1.8% | 3.7
CC(=O)c1cc(C#N)c(N2CCCC2)nc1C | 0.8 | 0.9 | -2.3 | 6.3% | /
Cc1ccc(/C=N\NC(=O)CNC(=O)C23CC4CC(CC(C4)C2)C3)o1 | -1.1 | / | -11.0 | / | /

Source: PubChem BioAssay

An excerpt; count on the stated rates, not on these rows.
